Screening results (PubChem)
Ecoli rRNA inh: reduced GFP signal of wild-type E. coli, primary screen, bacterial rRNA inhibitor project, GFP/RFP fluorescence, OD600, single point; E. coli WT GFP vs humanized-ribosome RFP mutants, 24 h; stronger effect = lower value; DMSO median 0, no signal -100; GFP signal change (wild-type ribosome), % (concentration not given with the values); hit rate 1.6% among 350,000;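 active = significant combined selectivity score with lowered wild-type GFP, culture density cut under 30%, mutant RFP and density less affected; inactive = any of these conditions unmet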; also: one replicate is shown; some compounds called inactive have numbers as strong as hits
Beta apoptosis: inhibitors of cytokine-induced beta cell apoptosis, primary screen, luminescence; AID 435005, 2010; hit rate 0.8% among 300,000; INS-1E cytokine-induced death, ATP luminescence, 48 h; percent of positive-control rescue, neutral wells zero; protection from apoptosis, % (concentration not given with the values);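 active = all replicates at 75% or more, or half of them and the mean; inconclusive = half reach 75% but not the mean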;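 also: 0% = cytokine-treated negative control wells and 100% = positive control rescue; higher means more ATP so stronger rescue from cytokine killing; wells of about 40 µL received 100 nL stock; the first replicate is given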
RanGTP-Imp inh: inhibitors of RanGTP-importin-beta interaction, primary screen, biochemical, FRET, CFP-Ran, YFP-importin-beta, homogeneous. Ran GTPase (GTP-bound) - importin-beta complex. cell-free CFP-Ran/YFP-importin-beta FRET ratio. inhibition, % (concentration not given with the values). hit rate 1.1% among 300,000. AID 2216, 2009;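 active = most replicates above 15%; inconclusive = exactly half above 15%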;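 also: 0% = DMSO wells and 100% = Ran loaded with GDP instead of GTP; wells of about 40 µL received 100 nL stock; the first replicate is given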
Calb FLC: C. albicans growth inhibition with fluconazole, primary screen, CaCi-2 strain, Alamar Blue fluorescence; hit rate 0.57% among 300,000; C. albicans CaCi-2 (fluconazole-resistant clinical isolate) + fluconazole, 48 h; growth inhibition, % (concentration not given with the values); AID 1979, 2009;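 active = most replicates above 75%; inconclusive = exactly half above 75%; inactive = most below 75%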;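 also: all wells also contain fluconazole at 8 µg/ml as a sub-toxic cotreatment; 0% = median of DMSO wells and 100% = median of geldanamycin control wells; wells of about 8 µL received 7.5 nL stock; the first replicate is given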
Vif A3G: inhibitors of Vif binding to APOBEC3G peptide, primary screen, biochemical, TR-FRET, GST-Vif 1-94, biotin-A3G peptide, dose response retest (AID 1117319). TR-FRET GST-Vif / biotin-A3G peptide binding; higher % means a stronger effect; test concentration not given here; strong numbers were not always called active. hit rate 0.57% among 260,000. Virion infectivity factor (Human immunodeficiency virus type 1 group M subtype B (isolate …. one-dose inhibition, %; IC50 in µM for titrated hits;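 active = above the screen mean plus three standard deviations and confirmed in dose response; inconclusive = results disagree or hit not tested in dose response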;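 also: Vif residues 1-94 fused to GST binding biotinylated APOBEC3G peptide 110-148; 0% = full assay without inhibitor and 100% = GST in place of GST-Vif; retest series ran down from 100 µM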
T cruzi repl: inhibitors of intracellular T. cruzi growth, primary screen, luminescence, NIH3T3 host cells; AID 1885, 2009; inhibition, % (test concentration not listed); hit rate 1.4% among 300,000; T. cruzi beta-gal in NIH3T3, 90 h;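 active = mean inhibition across valid replicates above about 55%, limit read from the data; inconclusive = mean below that limit but half or more replicates reach it; inactive = mean below it, under half of replicates reach it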;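 also: signal also drops with host cell toxicity which is not excluded here; 0% = plate median of DMSO wells and 100% = zero luminescence signal; higher percent means less beta-gal luminescence so fewer parasites; stock transfer was 50 nL into about 50 µL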
Bfl-1 A1 inh: caspase 3/7 activation in MEF A1-2A-BIM cells, primary screen, A1 inhibitor project, cell-based, luminescence, HTS. Caspase-Glo 3/7 luminescence, 3 h; percent of clofoctol response, vehicle zero. caspase activation, % (test concentration not listed). hit rate 0.066% among 330,000. AID 2462, 2010;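 active = over half of replicate activation scores above 10%, or exactly half above 10 with the replicate mean above 10; inconclusive = replicate mean below 10 yet half the replicates above 10; inactive = over half of replicates below 10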;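 also: wells of about 30 µL received 50 nL stock; many hits fall short of the cut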
MLL AF4-AF9 inh: inhibitors of AF4 peptide binding to AF9, primary screen, biochemical, AlphaScreen, biotin-AF4 peptide, FLAG-AF9, single point | Protein AF-9 (Homo sapiens), P42568 | inhibition, % at 10 µM | hit rate 0.47% among 350,000 | AID 651704, 2012;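 active = every replicate reaching a set inhibition limit, whatever the replicate mean, cut at about 25% in these data; inconclusive = mean inhibition reaches that limit but some replicates miss it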;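 also: 0% = plate neutral control median and 100% = total signal loss; the record names both 10 and 1 µM as test concentration; the first replicate is given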
Target sequence (P42568 whole entry, looked up): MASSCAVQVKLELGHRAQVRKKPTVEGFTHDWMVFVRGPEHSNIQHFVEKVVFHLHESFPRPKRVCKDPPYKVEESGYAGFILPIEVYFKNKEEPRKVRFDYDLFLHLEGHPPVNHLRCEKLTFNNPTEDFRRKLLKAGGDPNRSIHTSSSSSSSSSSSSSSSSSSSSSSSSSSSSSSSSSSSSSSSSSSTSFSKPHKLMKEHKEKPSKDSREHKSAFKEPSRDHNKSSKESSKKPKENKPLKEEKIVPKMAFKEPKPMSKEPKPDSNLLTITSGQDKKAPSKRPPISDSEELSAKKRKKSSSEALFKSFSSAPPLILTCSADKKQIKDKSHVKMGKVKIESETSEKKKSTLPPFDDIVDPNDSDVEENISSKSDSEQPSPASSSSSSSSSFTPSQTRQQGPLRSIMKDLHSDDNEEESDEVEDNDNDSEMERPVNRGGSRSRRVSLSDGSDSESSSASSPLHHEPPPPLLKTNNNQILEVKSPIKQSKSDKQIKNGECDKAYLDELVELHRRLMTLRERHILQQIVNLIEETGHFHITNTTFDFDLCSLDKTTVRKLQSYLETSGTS
Ecoli rRNA inh OD600: recorded beside Ecoli rRNA inh, whose call it bears; OD600 change, %; measured here: OD600 growth;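 optical density of the mix in the first replicate; 0 = DMSO median and -100 = no signal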
Ecoli rRNA inh RFP: recorded beside Ecoli rRNA inh, whose call it bears; RFP signal change, %; measured here: RFP humanized mutant strains;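 first replicate; 0 = DMSO median and -100 = no signal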
An asterisk follows results filed as active; u = inconclusive; x = no result given; & = joins results of further samples. Not all compounds are listed. The share of hits here may be higher or lower than overall.

SMILES	Ecoli rRNA inh	Ecoli rRNA inh OD600	Ecoli rRNA inh RFP	Beta apoptosis	RanGTP-Imp inh	Calb FLC	Vif A3G	T cruzi repl	Bfl-1 A1 inh	MLL AF4-AF9 inh
CCNC(=S)N(CCc1ccccc1C)Cc1cc2cc(OC)c(OC)cc2[nH]c1=O	-8	-9	6.0	-6	-6.4	-3	x	41	-0.2	-7.7
COc1ccccc1NC(=O)C1CCCN(c2cc(C)nc3ncnn23)C1 (stereo not given)	x	x	x	-3	0.2	x	-5%	-4	-0.8	x
CC(C)NC(=O)c1onc(CSc2ccc(F)cc2)c1C(=O)O	10	7	7.1	-4	5.0	-3	13%	-10	0.6	-29
CC12CCC(=O)N1C(C(=O)Nc1nc(-c3ccc(F)cc3)cs1)CS2 (stereo not given)	4	9	5.8	-1	2.2	-7	-5%	7	0.9	1.0
Cn1c(SCC(=O)Nc2ccccc2F)nnc1-c1cc2ccccc2o1	x	x	x	x	-5.1	-3	-2%	-5	-1.1	x
O=C(C1CCC1)N1CCN(c2ccc(C(F)(F)F)cc2[N+](=O)[O-])CC1	-8	-13	1.4	6	3.2	-3	x	-7	1.4	4.7
CN(C)c1cc(=O)n2c(n1)SCCC2	x	x	x	-2	72*	-8	22%	-4	0.7	x
COc1ccc(CN2CCc3ccc(NC(=O)c4ccncc4)cc3C2)c(F)c1	18	12	9.0	4	2.4	-7	-3%	37	0.0	0.5
CC(CCc1ccccc1)NC(=O)C1CCN(c2nnc(-n3cccc3)s2)CC1 (stereo not given)	1	6	2.2	7	4.3	-11	2%	-32	-0.7	7.4
Cc1ccc(P(C)(=O)c2ccc(C)cc2)cc1	x	x	x	-1	6.8	-16	32%	0	0.0	x
O=C1NC2=C(C(=O)CCC2)C(c2ccccc2)N1 (stereo not given)	4	5	-3.5	-4	u	12	x	-10	-0.4	1.1
COc1ccc(NC(=O)c2ccc(-n3cncn3)c([N+](=O)[O-])c2)cc1OC	4	5	0.3	7	6.3	8	3%	-3	-0.1	1.8
O=C(CSc1nc2ccccc2o1)Nc1nc(-c2ccccc2)cs1	x	x	x	-8	5.4	-5	30%	-4	-1.1	x
O=C1C2CCCN2C(c2ccc(Br)cc2)N1c1ccc(F)cc1 (stereo not given)	6	7	-2.1	-2	u	-13	2%	-9	-1.1	-3.2
C#CCn1ccc(O)c(Cc2ccccc2)c1=O	0	3	-2.2	-3	1.1	3	-1%	-9	3.8	-0.1
CCOC(=O)c1cc(C#N)c(Oc2ccc(F)cc2)nc1-c1ccccc1	x	x	x	29	u	32	-3%	18	-0.1	x
CCN(C(=O)CSc1ncnc2c1cnn2-c1ccccc1)C1CCS(=O)(=O)C1 (stereo not given)	17	27	-0.2	-5	x	-9	4%	-7	0.1	-25
O=C(Nc1ccc(N2CCOCC2)cc1)C1CC1	x	x	x	2	-2.7	-9	28%	-6	0.2	x
O=C(c1cc(-c2ccccc2Cl)nc2ccccc12)N1CCN(c2ccccc2O)CC1	-7	-3	5.2	33	-2.2	-3	0%	23	-0.4	7.0
O=c1cc(O)c2sc3nc(-c4ccccc4)cc(C(F)(F)F)c3c2[nH]1	x	x	x	6	-4.4	26	x	10	0.2	x
Cc1ccc(S(=O)(=O)c2nnn3c2nc(N2CCOCC2)c2ccccc23)cc1	-1	3	-2.1	4	-1.4	-2	x	9	0.6	3.9
CC1CCN(c2ccc3nnc(CCC(=O)NCc4ccco4)n3n2)CC1	8	15	3.3	-2	3.8	-10	x	1	3.7	0.0
CCc1nnc(NC(=O)Nc2ccc(Cl)cc2)s1	3	10	0.8	14	-0.9	-1	x	15	-0.2	1.2
Cc1oc(-c2nc3ccccc3n2C)cc1C(=O)c1ccccc1	x	x	x	9	0.3	8	15%	33	-16	x
COc1ccc(N2CCN(C(=O)c3ccc(CS(=O)(=O)c4ccccc4C)o3)CC2)cc1	-2	-22	5.4	0	1.9	-3	x	12	0.5	4.0
CCCc1cc(Nc2ccccc2OCC)n2ncnc2n1	x	x	x	5	6.4	-4	-3%	-4	-0.9	x
COc1ccc(C(=O)Nc2ccccc2C(=O)NCc2cccnc2)cc1OC	7	6	0.5	4	2.6	17	x	-3	-0.5	-0.9
Cc1n[nH]c(C)c1S(=O)(=O)N1CCc2ccccc21	x	x	x	-6	1.5	-5	-5%	-1	0.9	x
COc1cc(NC(=O)c2ccc(OC)c([N+](=O)[O-])c2)ccc1NC(=O)c1cccs1	x	x	x	-3	5.8	-10	1%	5	1.0	x
Cn1cnnc1Sc1nc2c(c(=O)n(C)c(=O)n2C)n1C	x	x	x	0	-0.4	-3	x	-8	1.3	x
Cc1ccc([N+](=O)[O-])cc1NC(=O)c1cccnc1	-2	7	0.1	x	-4.9	-2	x	-9	0.3	-9.1
CCc1cc(C(=O)c2ccc(OC)cc2)c(NC(=O)COCC(=O)O)s1	-12	-18	1.0	x	0.5	-2	-8%	-6	0.5	-0.9
O=C(CN1C(=O)CSc2ncccc21)NCCN1CCOCC1	19	15	0.4	-6	0.9	-5	-2%	-13	0.6	1.8
Cc1ccc2sc(NC(=O)CN3C(=O)CCC3=O)nc2c1C	-6	-14	-2.4	-7	-4.3	3	-2%	2	2.0	-10.0
Cc1ccccc1NC(=O)c1ccccc1NC(=O)c1ccccc1F	10	14	0.1	0	2.1	-2	1%	-4	0.1	-2.4
COC(=O)c1cc(Cl)c(NC(=O)c2ccc(F)cc2)cc1OC	-14	-22	-5.2	-3	1.2	1	27%	3	0.1	-9.3
COc1ccc(S(=O)(=O)N(C)C[C@H]2Oc3c(NC(=O)C4CCCCC4)cccc3C(=O)N([C@H](C)CO)C[C@@H]2C)cc1	0	2	2.9	-4	x	x	x	x	0.1	-1.6&-2.3
CC1CCCC(C)N1C(=O)CN1CCN(c2nc(-c3ccc(F)cc3)cs2)CC1 (stereo not given)	x	x	x	17	4.7	u	-1%	27	0.5	x
O=C(C(=O)N1CCOCC1)c1c[nH]c2ccccc12	19	14	0.2	1	-1.2	-1	0%	-13	0.4	-0.3
Cc1nc2cc(C(F)(F)F)ccc2n1C1CCN(CC(=O)NC(C)(C)C)CC1	x	x	x	-2	2.5	-11	3%	1	0.2	x
Cc1ccc(C)c2[nH]c(=O)c(C(c3nnnn3Cc3ccccc3)N3CCc4ccccc4C3)cc12 (stereo not given)	x	x	x	-8	0.1	-9	11%	u	-0.1	x
COc1cccc(C(=O)N2CCOCC2)c1	8	9	-3.0	-6	0.8	-12	0%	-2	0.0	-12
Cc1cccc(C(=O)NC(=S)NNC(=O)c2cccs2)c1	-56	-78	-30	6	3.0	51	1%	-11	0.0	-0.3
CCOc1ccc(-n2c(=O)c3c(C)c(C)sc3n(CC(=O)NCc3ccco3)c2=O)cc1	10	4	-5.2	x	x	x	75µM*	x	-1.0	8.3
CC(C)CC(=O)Nc1ccc2nn(-c3ccccc3)nc2c1	x	x	x	1	1.1	-2	-4%	4	-0.6	x
Cn1cnnc1SCC(=O)Nc1ccc(OCc2ccccc2)cc1	-8	-9	-6.3	-5	1.2	13	5%	3	-0.7	1.8
COc1ccc(C2C(C(=O)Nc3cc(OC)c(OC)c(OC)c3)c3ccccc3C(=O)N2C)cc1OC (stereo not given)	7	7	-3.0	-1	2.1	-6	3%	-6	0.6	-1.7
O=C(CC(Sc1ccc(Br)cc1)C(=O)O)c1ccc(F)cc1 (stereo not given)	11	3	-1.2	x	1.8	3	19%	73*	0.7	0.6
COc1ccc(Cl)cc1C(=O)Nc1cccc(-c2ccc3nncn3n2)c1	5	11	9.4	-3	4.9	-4	-8%	-20	-0.3	0.8
Cc1ccc(-c2nnc(SCC(=O)Nc3ccccc3N3CCOCC3)o2)cc1	x	x	x	x	-3.5	9	19%	-7	x	x
O=C(O)c1ccc(/C=N/n2cc(-c3ccccc3)[nH]c2=S)cc1	0	-2	-1.2	-6	1.8	-5	x	-12	0.1	-49
CSc1nnc(-c2ccncc2)n1CCCN1CCCC1=O	x	x	x	1	1.8	-8	3%	-31	0.2	x

11 consecutive compounds already listed, quoted:
SMILES	Ecoli rRNA inh	Ecoli rRNA inh OD600	Ecoli rRNA inh RFP	Beta apoptosis	RanGTP-Imp inh	Calb FLC	Vif A3G	T cruzi repl	Bfl-1 A1 inh	MLL AF4-AF9 inh
Cc1ccc(C)c2[nH]c(=O)c(C(c3nnnn3Cc3ccccc3)N3CCc4ccccc4C3)cc12 (stereo not given)	x	x	x	-8	0.1	-9	11%	u	-0.1	x
COc1cccc(C(=O)N2CCOCC2)c1	8	9	-3.0	-6	0.8	-12	0%	-2	0.0	-12
Cc1cccc(C(=O)NC(=S)NNC(=O)c2cccs2)c1	-56	-78	-30	6	3.0	51	1%	-11	0.0	-0.3
CCOc1ccc(-n2c(=O)c3c(C)c(C)sc3n(CC(=O)NCc3ccco3)c2=O)cc1	10	4	-5.2	x	x	x	75µM*	x	-1.0	8.3
CC(C)CC(=O)Nc1ccc2nn(-c3ccccc3)nc2c1	x	x	x	1	1.1	-2	-4%	4	-0.6	x
Cn1cnnc1SCC(=O)Nc1ccc(OCc2ccccc2)cc1	-8	-9	-6.3	-5	1.2	13	5%	3	-0.7	1.8
COc1ccc(C2C(C(=O)Nc3cc(OC)c(OC)c(OC)c3)c3ccccc3C(=O)N2C)cc1OC (stereo not given)	7	7	-3.0	-1	2.1	-6	3%	-6	0.6	-1.7
O=C(CC(Sc1ccc(Br)cc1)C(=O)O)c1ccc(F)cc1 (stereo not given)	11	3	-1.2	x	1.8	3	19%	73*	0.7	0.6
COc1ccc(Cl)cc1C(=O)Nc1cccc(-c2ccc3nncn3n2)c1	5	11	9.4	-3	4.9	-4	-8%	-20	-0.3	0.8
Cc1ccc(-c2nnc(SCC(=O)Nc3ccccc3N3CCOCC3)o2)cc1	x	x	x	x	-3.5	9	19%	-7	x	x
O=C(O)c1ccc(/C=N/n2cc(-c3ccccc3)[nH]c2=S)cc1	0	-2	-1.2	-6	1.8	-5	x	-12	0.1	-49
